MT1-MMP act inh = inhibitors of human MT1-MMP activation. P50281. HT1080 RFP-PRO-GFP cells, GFP/RFP ratio fluorescence, overnight; percent of plate control window, DMSO zero. GFP/RFP ratio change, % at 20 µM. 360,000 compounds, 0.061% hits. AID 651647;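 active = GFP/RFP ratio change of at least 30% with cell ATP level not reduced by more than half and red fluorescence within 50% of control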; also: strong numbers were not always called active
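Material: RFP-PRO-GFP reporter HT1080 cells. Dosing: single-point 20 µM compound, 1% DMSO. Controls: DMSO and RFP-L50D-GFP cell wells. Timing: cells overnight before dosing, compound overnight, 37 °C, 5% CO2. Measure: GFP/RFP fluorescence ratio.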
Yeast UUG start = modulators of start codon recognition fidelity in yeast | S. cerevisiae UUG-firefly luciferase reporter, luminescence/redox ratio | activity score, % at 18.7 µM | 350,000 compounds, 0.13% hits;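 active = replicate mean at a twofold rise or more, about +100% in these data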;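 also: firefly luciferase made from a UUG start codon reports start codon fidelity; reporter light over untreated wells divided by growth signal over untreated wells; some hits fall short of that in this replicate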
eIF4H FP inh = inhibitors of RNA binding by human eIF4H; Q15056; eIF4H fluorescence polarization binding assay; inhibition, % at 35 µM; 290,000 compounds, 0.94% hits; AID 2012;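 active = 50% or more with normal probe brightness, or confirmed in later tests; about a fifth of its hits are not listed in these tables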;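 also: calls also rest on retests at 20 µM and on dose response follow-up; 0% = protein and probe with vehicle and 100% = probe without protein; strong numbers were not always called active; many hits fall short of the cut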
CSC inhib = cancer stem cell inhibition | AID 2717 | cancer stem cell-like cells viability, luminescence | inhibition, % at 7.5 µM | 300,000 compounds, 1.1% hits;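 active = mean at 75% or more and at least half the replicates too; tested in HMLE shEcad cells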;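 also: 0% = median of negative and 100% = median of positive control wells; the first replicate is given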
PABP polyA inh = PABP-poly(A) binding inhibition. PABP-poly(A) RNA binding, fluorescence polarization. inhibition, % at 35 µM. 290,000 compounds, 1% hits. AID 2014;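 active = 50% or more with normal probe brightness, or confirmed in later tests; about a fifth of its hits are not listed in these tables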;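 also: calls also rest on retests at 20 µM and on dose response follow-up; controls were probe without protein and protein plus probe with vehicle; some compounds called inactive have numbers as strong as hits; many hits fall short of the cut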
Target sequence (P11940 whole entry, looked up): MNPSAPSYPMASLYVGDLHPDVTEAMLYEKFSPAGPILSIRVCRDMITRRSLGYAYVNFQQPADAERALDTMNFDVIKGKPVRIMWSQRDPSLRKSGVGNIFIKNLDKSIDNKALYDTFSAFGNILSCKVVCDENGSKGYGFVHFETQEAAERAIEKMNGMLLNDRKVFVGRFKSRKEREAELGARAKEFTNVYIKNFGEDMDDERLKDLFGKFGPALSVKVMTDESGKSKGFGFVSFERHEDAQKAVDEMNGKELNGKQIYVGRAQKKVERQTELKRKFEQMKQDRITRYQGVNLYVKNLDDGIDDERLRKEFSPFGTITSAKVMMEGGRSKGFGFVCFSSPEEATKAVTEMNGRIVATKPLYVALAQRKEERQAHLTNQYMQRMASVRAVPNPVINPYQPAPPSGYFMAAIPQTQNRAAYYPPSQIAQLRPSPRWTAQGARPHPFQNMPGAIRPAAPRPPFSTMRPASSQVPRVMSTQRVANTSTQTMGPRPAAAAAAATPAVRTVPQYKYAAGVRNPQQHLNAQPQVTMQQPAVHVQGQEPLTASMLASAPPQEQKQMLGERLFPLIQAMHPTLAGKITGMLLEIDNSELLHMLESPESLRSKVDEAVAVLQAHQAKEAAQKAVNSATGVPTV
Env fusion inh = HIV envelope-mediated fusion inhibition; HeLa-JRFL Env/CEM21 cell fusion, luciferase; inhibition, % at 12.3 µM; 360,000 compounds, 1.1% hits;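 active = mean replicate inhibition score of at least 50 and every replicate individually at or above 50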;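 also: 0% = plate neutral controls and 100% = maraviroc near 300 nM; one replicate is shown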
Rce1 inhib = inhibitors of yeast Ras-converting enzyme | yeast membranes, quenched prenylated peptide cleavage fluorescence | calls only | 290,000 compounds, 0.27% hits;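 active = fall in fluorescence gain of 50% or more versus controls, with final raw signal at or below 3038400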;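 also: plate controls were neutral control wells for no effect and wells lacking membranes for full effect; tested at 10 µM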
Target sequence (Q03530 whole entry, looked up): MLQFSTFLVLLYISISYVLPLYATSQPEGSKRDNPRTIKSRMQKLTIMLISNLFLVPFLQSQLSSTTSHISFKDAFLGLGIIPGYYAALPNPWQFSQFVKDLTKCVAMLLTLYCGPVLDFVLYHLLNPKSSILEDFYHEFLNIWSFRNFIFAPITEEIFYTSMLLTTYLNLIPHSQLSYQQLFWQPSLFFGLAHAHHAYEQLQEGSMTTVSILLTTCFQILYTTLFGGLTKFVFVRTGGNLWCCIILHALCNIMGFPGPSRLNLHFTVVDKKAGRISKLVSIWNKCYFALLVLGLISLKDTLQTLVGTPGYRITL
eIF4H FP inh retest = recorded beside eIF4H FP inh, whose call it bears; inhibition, %; compound at 20 µM; confirmation average;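 mean of two retest wells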
PABP polyA inh retest = further read-out of PABP polyA inh, marked with its call; inhibition, %; compound at 20 µM; confirmation repeats;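 mean of two retest wells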
MT1-MMP act inh RFP = also measured in MT1-MMP act inh; calls as there; RFP signal change, %; measured here: RFP expression control read;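 0 = vehicle wells; hits needed this value within 50% of zero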
The depositor's hits bear a star; i = inactive; . = no result given. Some of the compounds tested; the hit share may differ from the screen's.

SMILES	MT1-MMP act inh	MT1-MMP act inh RFP	Yeast UUG start	eIF4H FP inh	CSC inhib	PABP polyA inh	Env fusion inh	Rce1 inhib	others
O=C(c1nn2c(C(F)(F)F)cc(-c3ccccc3)nc2c1Cl)N1CCOCC1	8.8	3.6	12.6	-3.0	.	1.9	-14.4	i
O=C(NC1CCN(Cc2ccccc2)CC1)c1cccc(S(=O)(=O)Nc2ccc(Br)cc2)c1	-1.7	-15.9	-10.3	.	11.3	.	10.5	i
COCCN(C(=O)CCC(=O)Nc1cc(C)on1)C(C(=O)NC1CCCC1)c1ccccc1C (centres undefined)	0.0	6.0	.	-7.3	-10.2	-14.3	-20.4	i
COc1ccc(NC(=O)c2sccc2-n2cccc2)cc1	3.4	2.0	11.9	-12.6	-9.7	-16.9	0.3	i
CC1CCC(C(C)C)C(OC(=O)CSc2nc(N)cc(=O)[nH]2)C1 (centres undefined)	1.4	-9.6	-7.7	-1.6	12.6	-6.0	.	i
Cc1cc(C)nc(N2CCN(c3nc(C)cc(C)n3)CC2)n1	.	.	.	-9.0	.	-5.4	.	i
CC(NCc1cccnc1)c1ccccc1 (centres undefined)	-0.3	3.2	-0.6	-3.0	-6.9	3.7	2.5	i
O=C(CCSc1nc(-c2ccco2)cc(C(F)(F)F)n1)N1CCCc2ccccc21	-7.0	-10.6	-9.3	0.7	5.2	5.0	.	i
O=C(N/C(=C\c1ccc(Br)cc1)C(=O)N1CCOCC1)c1ccccc1Cl	0.8	-2.7	-12.7	-0.9	-3.4	-5.5	-1.9	i
FC(F)(F)c1ccc(Cl)c(Nc2nnc(-c3ccncc3)s2)c1	5.4	9.7	-30.8	.	.	.	22.6	.
COc1ccc(S(=O)(=O)Nc2ccc3c(c2)C(=O)N([C@H](C)CO)C[C@H](C)[C@@H](CN(C)C(=O)Nc2ccc(F)cc2)OCCCC[C@H](C)O3)cc1	0.8	-6.4	-3.4	.	.	.	-179.7	.
C=CCNC(=S)NCCCCC1NC(=S)N(CC=C)C1=O (centres undefined)	-3.0	4.4	.	-13.7	-1.9	15.5	10.7	i
CCN(CC)S(=O)(=O)c1ccc(Cl)c(NC(=O)COc2ccc3c(C)cc(=O)oc3c2)c1	3.7	3.4	-18.7	2.4	-7.1	24.7	6.3	i
Cc1ccccc1OCC(=O)NNC=O	-0.8	1.9	7.0	0.1	9.3	-10.0	-12.7	i
Oc1ccc(Nc2ncnc3scc(-c4ccccc4)c23)cc1	-5.2	-15.1	-20.3	-9.0	.	-5.5	26.1	i
COc1ccc([C@H]2CC(=O)C=C(c3cc4ccccc4c4ccccc34)C2)cc1	-0.6	-2.1	-16.6	.	53.3	.	-2.5	.
CCN(CCO)C(=O)C(c1ccccc1)c1ccccc1	3.0	5.5	-16.1	5.0	-3.6	4.0	.	i
COc1cccc(C(=O)NNC(=O)Cc2cccs2)c1	0.2	-0.1	.	0.2	-12.5	4.2	4.9	i
CCOc1ccc(S(=O)(=O)NCCC(=O)NC2CCC(C)CC2)cc1 (centres undefined)	0.2	-2.8	0.8	.	-16.1	.	-1.5	.
COc1cccc(OC)c1C(=O)Nc1ccc2c(c1)CCCN2S(=O)(=O)c1ccc(C)cc1	2.7	-3.5	-25.4	-1.2	1.6	0.6	3.4	i
COC(=O)[C@H](CC(C)C)NC(=O)Nc1ccc2c(c1)OCCO2	-0.7	3.7	.	-3.5	8.2	-3.6	.	i
CCN1CCN(c2ccc(S(=O)(=O)N3CCOCC3)cc2NC(=O)c2ccc(Cl)cc2Cl)CC1	-2.7	-1.1	-11.9	.	-2.1	.	3.8	i
O=S(=O)(NN=Cc1ccc(O)cc1O)c1cc(Cl)c(Cl)cc1Cl	9.7	7.4	-9.8	.	.	.	-3.8	.
O=C(Nc1cc(C(F)(F)F)ccc1-n1cncn1)c1ccc(F)cc1Cl	-4.4	2.7	4.6	.	7.0	.	40.5	.
Nc1nnc(SCC(=O)Nc2nccs2)s1	0.5	3.9	.	-6.1	-2.1	6.9	-0.3	i
COc1cccc(CN2CCN(C(=O)c3ccco3)CC2)c1	2.0	0.5	10.4	7.3	-4.5	4.1	-9.2	i
Cc1c(C(=O)N2CCN(Cc3ccc4c(c3)OCO4)CC2)sc2ncnc(N3CCN(c4ccccc4)CC3)c12	5.7	-26.4	-16.7	-8.1	18.8	5.6	23.0	i
CCOc1ccc2nc(SCC(=O)NCc3ccc(OC)c(OC)c3)[nH]c2c1	-0.2	0.7	-12.6	-5.3	-6.8	4.2	-108.0	.
Cc1ccc(C)c(NS(=O)(=O)c2ccc3c(c2)NC(=O)CO3)c1	-1.4	1.0	-13.5	-5.4	.	5.2	0.4	i
O=C1/C(=C\c2ccc(Br)o2)Cc2ccccc21	0.0	3.2	-8.3	39.3	-6.0	-6.5	-42.5	i
COc1ccc(CCNC(=O)C2CCCN(S(=O)(=O)N3CCCCCC3)C2)cc1OC (centres undefined)	1.7	2.3	-11.5	3.3	8.6	-1.3	3.8	i
Cc1nnc2sc(-c3cccc(NC(=O)c4cccnc4)c3)nn12	4.2	0.8	-20.0	2.7	-8.7	3.3	0.5	i
Cc1[nH]c2ccccc2c1CCNC(=O)c1ccc2nccnc2c1	1.6	6.5	-17.0	-0.4	1.9	10.3	25.0	i
CC1=NOC(=O)/C1=C/c1ccc(O)c(Cl)c1	-5.6	-1.9	-15.4	-15.9	.	-14.8	19.3	i
CC(C)c1ccc(NC(=O)CN2C(=O)NC(C)(C3CC3)C2=O)cc1 (centres undefined)	6.9	2.8	-25.2	.	-1.2	.	-6.5	.
CSc1nnc(CCNC(=O)OC(C)(C)C)o1	-1.7	-0.7	-8.0	1.1	-0.9	-15.5	-14.2	i
COc1cccc(-n2nc(C(C)=O)c(=O)[nH]c2=O)c1	4.4	-0.9	5.0	0.7	-5.3	79.7	7.7	i	eIF4H FP inh retest=8.2;PABP polyA inh retest=-0.9
COc1ccc(C2CC(c3ccccc3OC(C)=O)=NN2C(C)=O)cc1 (centres undefined)	-1.8	-5.7	.	0.9	15.3	-9.6	-19.9	i
CCCCC(=O)Nc1ccc(C(=O)N2CCCC(C(=O)OCC)C2)cc1 (centres undefined)	3.8	-2.0	-9.9	4.0	-9.0	-3.0	-49.7	i
O=[N+]([O-])c1ccc(/C=[N+](\[O-])CCO)o1	-3.6	1.5	-8.5	49.6	2.9	40.1	3.6	i
Cc1n[nH]c(=O)nc1NCCc1ccccc1	-2.1	-1.1	.	7.4	-4.0	2.4	-53.1	i
CCC(C)C(NC(N)=O)C(=O)Nc1ccc(OCc2ccccc2)cc1 (centres undefined)	2.6	-6.2	-4.0	-5.2	-3.0	-5.7	-10.0	i
CCOc1ccccc1NC(=O)NC1(C(=O)NCC2CCCO2)CCCCC1 (centres undefined)	1.3	3.3	4.1	-5.1	-16.4	5.6	-8.0	.
COc1cc(NS(=O)(=O)c2ccc(NC(=O)c3ccc(C)o3)cc2)nc(OC)n1	0.0	-3.1	.	4.0	1.9	8.4	-26.0	i
CSC1=C(C#N)C(C)C2=C(CC(C)(C)CC2=O)N1 (centres undefined)	4.1	-4.8	-5.1	-1.5	-7.2	1.7	.	i
O=C(c1ccccc1)N(CCCl)C(=O)N(CCCl)C(=O)c1ccccc1	6.0	4.4	-16.0	.	.	.	-2.9	.
COc1ccc(-c2cc(NC(C)=O)c3ncc(-c4cccc(C(C)=O)c4)n3c2)cc1OC	-4.7	-1.8	-2.6	.	.	.	3.7	.
Cc1ccccc1CC(=O)OCC(=O)Nc1ccc(C)c(S(=O)(=O)N2CCCCC2)c1	3.2	2.2	-8.4	.	-8.9	.	3.3	.
Cc1nnc(N2CCC(C(=O)NC3CCC(C)CC3)CC2)c2nn(-c3ccc(Cl)cc3)c(C)c12 (centres undefined)	5.5	5.5	4.7	-4.5	10.6	-8.4	.	i
Cc1cccc2cc(CN(CCCO)C(=O)Nc3ccc(Cl)cc3)c(=O)[nH]c12	5.1	-3.9	-1.9	-6.9	.	-2.9	.	.
COc1cc(C(=O)Nc2cccc(-c3nncn3C)c2)cc(OC)c1OC	4.1	4.2	-9.1	-8.6	0.1	2.1	.	i
C=CCN(C(=O)Nc1ccc(Cl)cc1)C1CC(=O)N(c2ccc(OC)cc2)C1=O (centres undefined)	9.0	2.9	8.1	-2.1	-4.2	-4.9	13.1	.
Cc1cc(NS(=O)(=O)c2ccc(NC(=O)COc3ccccc3C(C)(C)C)cc2)no1	1.9	1.4	-15.8	-15.1	1.6	5.9	4.3	.
COCC1=C(C(=O)OC(C)OC(=O)OC(C)C)N2C(=O)[C@@H](NC(=O)/C(=N\OC)c3csc(N)n3)[C@H]2SC1 (some centres undefined)	.	.	-7.9	.	-8.8	.	4.3	i
Cn1c2ccccc2n2c(=O)c(Cl)c(-c3ccccc3)c(C#N)c12	3.2	3.5	-4.0	5.3	5.6	4.8	0.1	i
O=C(Nc1ccccc1)c1cc(C2CCCCN2S(=O)(=O)c2cccs2)on1 (centres undefined)	-8.0	-18.7	-5.3	.	.	.	7.6	.
CCCN1CCN(C(=O)c2oc3ccccc3c2NC(=O)COc2ccc(OC)cc2)CC1	3.7	-4.1	-3.2	-10.8	-9.3	-4.9	15.3	i
O=C(O)C1CCCN(S(=O)(=O)c2ccccc2[N+](=O)[O-])C1 (centres undefined)	-0.2	4.2	-12.2	1.1	-5.9	-2.3	-4.7	i
CCN(CC)C(=O)c1ccc2nc([C@@H]3O[C@H](CO)[C@H](O)[C@H](O)[C@H]3O)[nH]c2c1	0.4	3.7	-18.4	.	.	.	-19.0	.
Cc1cccc(C)c1N1CCN(c2n[nH]c(N)n2)CC1	0.4	4.8	.	10.2	0.5	4.3	7.7	i

Part of the list above in order of length of the SMILES, ascending:
SMILES	MT1-MMP act inh	MT1-MMP act inh RFP	Yeast UUG start	eIF4H FP inh	CSC inhib	PABP polyA inh	Env fusion inh	Rce1 inhib	others
CSC1=C(C#N)C(C)C2=C(CC(C)(C)CC2=O)N1 (centres undefined)	4.1	-4.8	-5.1	-1.5	-7.2	1.7	.	i
O=C(O)C1CCCN(S(=O)(=O)c2ccccc2[N+](=O)[O-])C1 (centres undefined)	-0.2	4.2	-12.2	1.1	-5.9	-2.3	-4.7	i
O=C(NC1CCN(Cc2ccccc2)CC1)c1cccc(S(=O)(=O)Nc2ccc(Br)cc2)c1	-1.7	-15.9	-10.3	.	11.3	.	10.5	i
COc1ccc(S(=O)(=O)Nc2ccc3c(c2)C(=O)N([C@H](C)CO)C[C@H](C)[C@@H](CN(C)C(=O)Nc2ccc(F)cc2)OCCCC[C@H](C)O3)cc1	0.8	-6.4	-3.4	.	.	.	-179.7	.

New compounds follow.
SMILES	MT1-MMP act inh	MT1-MMP act inh RFP	Yeast UUG start	eIF4H FP inh	CSC inhib	PABP polyA inh	Env fusion inh	Rce1 inhib	others
COC(=O)CN(C#N)c1nc(NC(C)C)nc(NC(C)C)n1	3.3	4.3	.	-14.6	.	10.2	-5.1	i
O=S(=O)(Nc1ccccn1)c1ccc(Cl)cc1	-5.8	-0.5	-3.9	-11.2	-17.5	33.3	-62.0	.
Nc1c2c(nn1-c1ccc(F)cc1)CSC2	4.9	5.3	-13.5	75.5	10.3	-11.7	0.5	i	eIF4H FP inh retest=-7.7;PABP polyA inh retest=-7.7
O=C(Cn1ccc(NC(=O)OCc2ccccc2)nc1=O)NCC1CCCO1 (centres undefined)	1.5	3.8	4.6	.	-2.8	.	-10.8	.
CCn1cc(C(=O)NCC2CCCO2)c(=O)c2cc(S(=O)(=O)N3CCCCCC3)ccc21 (centres undefined)	2.2	3.3	9.5	-8.4	1.3	-5.0	23.0	i
Cc1oc(-c2ccc3c(c2)OCCO3)cc1C(=O)NC(CCC(=O)O)C(=O)O (centres undefined)	0.5	-0.2	-38.6	8.6	-7.6	5.8	-31.9	i
O=C(COC(=O)c1ccc(S(=O)(=O)N2CCOCC2)cc1)NC1CCCC1	-4.5	-0.6	-32.9	-0.4	-3.3	9.2	.	i
